Compound activity (PubChem)
ID4 SMM = ID4 (human) binding; P47928; small molecule microarray, Flag-ID4 binding, fluorescence F/B; calls only; 31,000 tested, 1.2% active; AID 624137;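 active = spot signal over background at p below 0.07 in all four prints; compounds were printed on slides so no solution concentration is given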;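 note: a binder raises fluorescence above local background on the spot; about 2 pmol printed per array spot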
Target sequence (P47928 whole entry, looked up): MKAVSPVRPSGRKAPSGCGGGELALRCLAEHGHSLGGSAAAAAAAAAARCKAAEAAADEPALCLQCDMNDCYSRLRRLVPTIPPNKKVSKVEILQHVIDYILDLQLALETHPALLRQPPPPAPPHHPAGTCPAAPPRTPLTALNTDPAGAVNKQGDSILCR
Calls only; i = inactive. A portion of the library (hit frequency here may not be typical).

Molecule: c1ccc(C2CC2)c(OCC2=NCCN2)c1
  ID4 SMM: i
Molecule: N#CC(C#N)=Cc1ccc(O)c(O)c1
  ID4 SMM: i
Molecule: CCCN(CCC)C1CCc2ccc(O)cc2C1 (stereo unspecified)
  ID4 SMM: i
Molecule: CCNc1nc(Cl)nc(NCC)n1
  ID4 SMM: i
Molecule: COc1ccc(OC)c(NC(=O)Cn2cc(C(=O)c3ccccc3)c3ccccc32)c1
  ID4 SMM: i
Molecule: Clc1cccc(Cl)c1NC1=NCCS1
  ID4 SMM: i
Molecule: C=C1C(=O)O[C@@H]2[C@H]3C(=C)[C@@H](O)C[C@H]3C(=C)C[C@@H](O)[C@@H]12
  ID4 SMM: i
Molecule: CCCCn1c(C)c(C(C)=O)c2c(OCC(=O)O)c(Cl)c(Cl)c(Cl)c21
  ID4 SMM: i
Molecule: CC(C)N1C(=O)c2ccccc2NS1(=O)=O
  ID4 SMM: i
Molecule: CCOP(=S)(OCC)Oc1ccc2c(C)c(Cl)c(=O)oc2c1
  ID4 SMM: i
Molecule: COC1=C[C@@H]2[C@@H]3Cc4ccc(OC)c(O)c4[C@]2(CCN3C)CC1=O
  ID4 SMM: i
Molecule: CCOC(=O)c1[nH]c2ccc(OC)cc2c1C(SCC(=O)O)c1ccc(C(F)(F)F)cc1 (stereo unspecified)
  ID4 SMM: i
Molecule: CCCCOC(=O)c1ccccc1C(=O)OCc1ccccc1
  ID4 SMM: i
Molecule: CC(C)N(C(=O)SCC(Cl)=C(Cl)Cl)C(C)C
  ID4 SMM: i
Molecule: OC(Cc1ccncc1)C(Cl)(Cl)Cl (stereo unspecified)
  ID4 SMM: i
Molecule: Cc1nn(Cc2cccc(C(=O)Nc3ccc4oc(=O)cc(C(F)(F)F)c4c3)c2)c(C)c1Cl
  ID4 SMM: i
Molecule: C=CC(C)(C)[C@@]12C[C@H]3C(=O)N/C(=C\c4cnc[nH]4)C(=O)N3[C@@H]1Nc1ccccc12
  ID4 SMM: i
Molecule: Cc1ccnc(NC(c2ccccc2[N+](=O)[O-])c2ccc3ccc(C)nc3c2O)c1 (stereo unspecified)
  ID4 SMM: i
Molecule: CO[C@H](C)C(O)(C(=O)OCC1=CCN2CC[C@H](O)[C@@H]12)C(C)C (stereo partly specified)
  ID4 SMM: i
Molecule: CCOP(=S)(OCC)SCn1c(=O)oc2cc(Cl)ccc21
  ID4 SMM: i
Molecule: COc1ccc(CC2(CCc3ccccn3)C(=O)NC(=O)N(c3ccccc3C)C2=O)cc1OC (stereo unspecified)
  ID4 SMM: i
Molecule: O=c1[nH]c2ccccc2n1C1CCN(CCCC(c2ccc(F)cc2)c2ccc(F)cc2)CC1
  ID4 SMM: i
Molecule: C=C1C([C@]2(C)C(CC(=O)OC)[C@@](C)(COC(C)=O)OC(=O)C[C@@H]2OC(C)=O)[C@@H](OC=O)[C@H](OC(=O)C(OC(C)=O)C(C)CC)[C@@]2(C)[C@H](c3ccoc3)CC(=O)C12O (stereo partly specified)
  ID4 SMM: i

Three compounds from above, arranged by length of the SMILES, falling:
Molecule: Cc1nn(Cc2cccc(C(=O)Nc3ccc4oc(=O)cc(C(F)(F)F)c4c3)c2)c(C)c1Cl
  ID4 SMM: i
Molecule: CCOP(=S)(OCC)SCn1c(=O)oc2cc(Cl)ccc21
  ID4 SMM: i
Molecule: CCCCOC(=O)c1ccccc1C(=O)OCc1ccccc1
  ID4 SMM: i

Quoted at random: six entries already listed
Molecule: CC(C)N1C(=O)c2ccccc2NS1(=O)=O
  ID4 SMM: i
Molecule: CCCCOC(=O)c1ccccc1C(=O)OCc1ccccc1
  ID4 SMM: i
Molecule: CCCN(CCC)C1CCc2ccc(O)cc2C1 (stereo unspecified)
  ID4 SMM: i
Molecule: CC(C)N(C(=O)SCC(Cl)=C(Cl)Cl)C(C)C
  ID4 SMM: i
Molecule: COc1ccc(CC2(CCc3ccccn3)C(=O)NC(=O)N(c3ccccc3C)C2=O)cc1OC (stereo unspecified)
  ID4 SMM: i
Molecule: CCOP(=S)(OCC)SCn1c(=O)oc2cc(Cl)ccc21
  ID4 SMM: i
